# High-throughput results as filed in PubChem BioAssay.
# miR-21 FLuc: miR-21 reporter, rising signal; HeLa miR-21 FLuc reporter, luciferase, 48 h; Potency, µM (highest dose often 38.3 µM), without a hit: at the highest dose reporter change, positive = more light; 340,000 tested, under 10 active; active = well fitted rising curve with a large enough effect; inconclusive = small, poorly fitted or top-dose-only effect; inactive = no such curve, though single readings can be large or run the other way;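 note: % of control where 0% means no effect; miR-21 action dims this reporter so a rising signal means less miR-21 action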
#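 Luminescence from a firefly luciferase reporter carrying a miR-21 binding site downstream, stably expressed under a CMV promoter in HeLa cells that make miR-21 endogenously, reports miRNA modulation after 48 h compound exposure up to approximately 40uM final.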
# GLA inh pH 4.5: alpha-galactosidase A (human) inhibition, pH 4.5; P06280; AID 1467; activity change, negative = inhibition, % at 105 µM; purified enzyme, 4-MU-alpha-Gal fluorescence, pH 4.5; 230,000 tested, under 10 active; inconclusive = small, poorly fitted or top-dose-only inhibition, or a rising curve; inactive = flat fitted curve, though single readings scatter; no compound was filed as active;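 note: 0% = full activity with enzyme and -100% = basal without enzyme; dose as in the result columns while the protocol names 77 µM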
# Rango-impB inh: prevents formation of the Rango-importin beta complex; Q14974; Rango CFP/YFP FRET sensor + importin beta, 45 min; Potency, µM (doses to about 92.2 µM), inactives show at the highest dose inhibition of complex formation; hit rate 0.031% among 340,000; AID 540263; active = rising FRET ratio curve, often small or poorly fitted; inconclusive = mostly compound fluorescence or quenching in the first reads; inactive = flat curves in all reads;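 note: potency is the fitted concentration of half-maximal effect; 0% = DMSO wells and 100% = buffer wells lacking importin beta; nearly all actives have a fitted effect of over 15% in size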
# Target sequence (Q14974 whole entry, looked up): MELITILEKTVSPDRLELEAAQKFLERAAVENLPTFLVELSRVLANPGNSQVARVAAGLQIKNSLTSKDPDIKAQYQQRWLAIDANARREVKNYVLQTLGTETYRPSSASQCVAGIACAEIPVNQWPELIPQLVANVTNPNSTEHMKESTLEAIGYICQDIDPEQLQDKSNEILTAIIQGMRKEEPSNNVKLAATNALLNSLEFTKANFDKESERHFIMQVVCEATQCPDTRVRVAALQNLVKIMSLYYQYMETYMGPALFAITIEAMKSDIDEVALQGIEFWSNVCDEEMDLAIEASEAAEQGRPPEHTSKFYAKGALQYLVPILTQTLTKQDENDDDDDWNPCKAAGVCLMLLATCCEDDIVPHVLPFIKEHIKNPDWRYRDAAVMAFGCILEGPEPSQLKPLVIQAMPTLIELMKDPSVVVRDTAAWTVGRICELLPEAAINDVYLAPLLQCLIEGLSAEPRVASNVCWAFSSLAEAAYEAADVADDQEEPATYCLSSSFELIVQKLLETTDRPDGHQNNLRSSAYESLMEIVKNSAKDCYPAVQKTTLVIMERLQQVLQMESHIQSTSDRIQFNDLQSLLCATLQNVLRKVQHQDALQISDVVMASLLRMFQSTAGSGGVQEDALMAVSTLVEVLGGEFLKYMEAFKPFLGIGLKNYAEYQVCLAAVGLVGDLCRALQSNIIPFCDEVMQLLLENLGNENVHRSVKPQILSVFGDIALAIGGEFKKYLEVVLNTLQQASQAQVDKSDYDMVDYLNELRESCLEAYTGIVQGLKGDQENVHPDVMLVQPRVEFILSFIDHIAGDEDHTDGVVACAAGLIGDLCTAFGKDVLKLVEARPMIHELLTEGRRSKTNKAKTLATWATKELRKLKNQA
#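 FRET biosensor Rango (snurportin 1 IBB between N-terminal EYFP and C-terminal Cerulean), 50 nM in PBS/1 mM DTT/0.02% Tween-20/0.1% BSA, preincubated 5 min RT with compound; 0.125 microM importin beta added, 45 min RT, CFP/YFP FRET ratio read.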
# Rango release inh: inhibition of RanGTP-driven Rango-importin beta dissociation; Potency, µM (top dose mostly 46.1 µM), without a hit: at the top dose activity change, negative = inhibition; hit rate 0.071% among 340,000; Biochemical FRET Rango-importin beta, RanGTP-induced dissociation; active means falling FRET ratio curve, often poorly fitted, with flat reads before Ran was added; inconclusive means other falling curves, or compound fluorescence or quenching; inactive means flat or rising ratio curve;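 note: potency is the fitted concentration of half-maximal effect; % of control where 0% means no effect; nearly all actives have a fitted effect of over 45% in size; -100% = wells without RanGTP and RCC1; the record marks most hits as doubtful in a second field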
#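 Compounds preincubate 5 min with complex of recombinant Rango and importin beta in PBS with 1 mM DTT. Ran (0.6 uM) loaded with 2 mM GTP plus 0.2 uM RCC1 starts dissociation; FRET is recorded 45 min later.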
# Active calls of the source: *; ? = inconclusive; / = no result given.
miR-21 FLuc	GLA inh pH 4.5	Rango-impB inh	Rango release inh	compound
-14.6%	3.7	1.3%	3.0%	COCCNC(=O)c1ccc(N2CCC3(CC2)OCCO3)c([N+](=O)[O-])c1
-40.7%	-19.5	-2.0%	0.7%	CCN(CC(=O)Nc1ccc2c(c1)OCCO2)C(=O)/C=C/c1ccc(F)cc1
-0.6%	-4.4	2.1%	0.5%	Cc1cccc(Cn2c(=O)c3c(nc4n3CCN4Cc3ccco3)n(C)c2=O)c1
-3.1%	5.3	-0.5%	3.7%	CCn1cc([N+](=O)[O-])c(C(=O)Nc2nc(-c3ccc(C)cc3)c(C)s2)n1
-1.8%	-3.7	-3.2%	-7.6%	CCNC(=O)CCSc1nnc(-c2ccco2)o1
4.3%	10.5	-2.6%	-5.0%	CC(C)=NNC(=O)c1c(O)c2ccccc2[nH]c1=O
-18.2%	3.0	-0.9%	5.2%	Cc1c(C(=O)N2CCc3ccccc32)cnn1C
-25.4%	-0.4	-4.2%	5.1%	CN(c1ccc(C(=O)Nc2ccc3c(c2)OCCO3)cc1)S(C)(=O)=O
-6.9%	2.3	3.3%	21.8%	O=[N+]([O-])c1cccc(-c2nnc3ccc4ccccc4n23)c1
/	/	-4.2%	8.9%	CC1(C)NC(=O)N(CC(=O)N2CCCC(C(F)(F)F)C2)C1=O (configuration not stated)
-0.8%	-3.2	0.8%	-14.5%	Cc1ccc(N(C(C)C(=O)N2CCC(C)CC2)S(C)(=O)=O)cc1C (configuration not stated)
-1.0%	-5.4	0.1%	-8.9%	O=C(NNS(=O)(=O)c1ccccc1Cl)c1nn(-c2ccc(F)cc2)ccc1=O
/	/	1.2%	1.1%	C#CCOCCOCCOCCNc1nc(N2CCN(C(=O)CCCCCCCCCCNC(=O)[C@@H](CCSC)n3cc(CCO)nn3)CC2)nc(N2CCN(C(=O)CCCCCCCCCCNC(=O)[C@H](CCSC)n3cc(CCO)nn3)CC2)n1
-28.7%	4.4	1.4%	-20.7%	Cc1csc(NC(=O)c2cccc(C)c2C)n1
-43.3%	/	-3.7%	-18.2%	CSc1ccccc1OCc1cc(C(=O)N(C)Cc2ccc(C)o2)no1
-2.3%	6.9	0.2%	-16.1%	O=C(C1CCN(S(=O)(=O)c2cccc3cccnc23)CC1)N1CCc2ccccc21
-0.2%	3.3	2.4%	9.0%	O=C(CCNS(=O)(=O)c1ccc2c(c1)CCC(=O)N2)NCc1ccc2c(c1)OCO2
0.8%	/	2.5%	12.8%	Nc1nc(Cl)nc2ncn(Cc3ccccc3)c12
-20.1%	-1.9	0.4%	-11.8%	CC(C)(C)C(=O)NC(=S)Nc1ccc(F)cc1
-26.1%	-16.9	4.6%	-21.3%	CCCc1ccc(-c2cc(C(=O)NC3=NCCS3)c3ccccc3n2)cc1
-5.8%	3.2	-3.5%	-8.2%	NC(=O)CCn1ccc2ccccc21
-4.5%	-8.4	-1.4%	-1.1%	COCCn1c(SCC(=O)NC2CCCC2)nc2cccnc21
-17.0%	5.3	-3.2%	-14.8%	Cc1cc(SCC(=O)c2ccc(O)c(O)c2)nc2ccccc12
2.4%	0.4	-1.6%	-12.1%	CCN(C(=O)CSc1cc(C)c2ccccc2n1)C1CCS(=O)(=O)C1 (configuration not stated)
-21.5%	3.9	-1.7%	-10.5%	Cc1cc(C)c(NC(=O)COC(=O)CSc2ccc(Br)cc2C)c(C)c1
-1.9%	-0.5	-0.6%	0.8%	O=C(O)C1CCCCC1C(=O)NCCCc1ccccc1 (configuration not stated)
/	/	1.3%	12.6%	CC(C)[C@H](NS(=O)(=O)c1ccccc1F)C(=O)OCC(=O)Nc1cccc(S(N)(=O)=O)c1
-5.1%	/	-3.4%	14.3%	CCN1C(=O)c2ccccc2S(=O)(=O)c2ccc(C(=O)NC(C)C)cc21
-12.8%	/	-0.1%	1.7%	Cc1cc(N2C(=O)C(O)=C(C(=O)c3cc4ccccc4o3)C2c2ccc(OC(C)C)cc2)no1 (configuration not stated)
23.1%	-2.3	2.1%	-15.2%	Cc1nc(Nc2ccc(Cl)c(Cl)c2)sc1C(=O)Nc1ccccc1
/	/	4.4%	-7.1%	Cc1cccc(N(Cc2ccccc2)C(=O)Cc2ccc(S(=O)(=O)N3CCOCC3)s2)c1
0.0%	/	-3.5%	-11.5%	N#CC1(NC(=O)COC(=O)c2ccccc2SCC(=O)N2CCCC2)CCCCC1
-0.4%	/	-0.4%	1.9%	Cc1cc2c(cc1S(=O)(=O)CCC(=O)NC1CCCCC1C)OCC(=O)N2 (configuration not stated)
/	/	-5.1%	-0.7%	CCn1c(SCC(=O)NC2(C#N)CCCCC2)nc2ccccc2c1=O
25.3%	9.1	2.4%	-5.5%	COc1cccc(NC(=O)COC(=O)c2c3c(nc4ccccc24)CCC(C)C3)c1 (configuration not stated)
0.3%	-3.0	-1.3%	12.0%	CCC(=O)Nc1ccc(C(=O)NNC(=O)c2cc([N+](=O)[O-])cc([N+](=O)[O-])c2)cc1
-47.6%	/	?	14.2%	CC(=O)c1cccc(NC(=O)c2ccc3c(c2)CCCC3)c1
-52.3%	-1.0	-1.2%	-0.7%	Cc1cccc(Nc2ncnc3nc[nH]c23)c1
-5.2%	3.8	0.1%	9.5%	CCCN1Cc2cccc(C(=O)N3CCN(c4ccccc4)CC3)c2C1=O
0.7%	-1.6	?	-3.2%	O=c1[nH]c(CSc2nnnn2-c2ccc(Cl)cc2)nc2ccccc12
-3.9%	4.0	1.0%	0.9%	COc1ccc(-n2nnc3c(=O)n(CC(=O)N4CCCc5ccccc54)cnc32)cc1
-17.0%	?	0.1%	1.0%	COc1cc2c(cc1NC(=O)c1cccc([N+](=O)[O-])c1C)oc1ccccc12
/	/	-2.7%	-6.3%	COc1cc(C2c3cc4c(cc3OC(N3CCCC3)C2C)OCO4)cc(OC)c1O (configuration not stated)
-0.2%	-12.3	-4.2%	12.3%	COC(=O)C(C)N(C(=O)c1ccc(C(=O)c2ccccc2)cc1)c1c(C)cccc1C (configuration not stated)
-0.5%	-1.3	2.5%	1.5%	CC(=O)N(c1c(C)n(C)n(-c2ccccc2)c1=O)C1(C(=O)NC2CCCCC2)CCCCC1
0.6%	-4.1	-1.0%	20.3%	Cc1ccccc1S(=O)(=O)Cc1ccc(C(=O)NCCCN2CCN(C)CC2)o1
/	/	-2.1%	-3.8%	O=C(O)c1ccc2c(c1)S(=O)(=O)c1cc(Cl)ccc1C2=O
-1.1%	-5.4	-4.3%	5.7%	COCCn1c(NCc2ccco2)nc2c1c(=O)[nH]c(=O)n2C
-2.3%	/	-1.7%	-7.5%	CCOc1cc(S(=O)(=O)NCC2CCCO2)ccc1F (configuration not stated)
-6.4%	-2.7	1.1%	3.0%	C/C(CC(=O)NCc1ccco1)=N\NC(=O)Cc1cccc2ccccc12
0.1%	3.2	0.9%	0.4%	CCN(CC(=O)NCCc1ccc(S(N)(=O)=O)cc1)Cc1nc2cc(OC)c(OC)cc2c(=O)[nH]1
1.0%	/	-1.5%	8.6%	COc1ccc(Cl)cc1NC(=O)C1CCN(S(C)(=O)=O)CC1
-4.5%	3.1	0.7%	-6.1%	O=C(OCc1c(Cl)cccc1Cl)c1ccncc1
9.0%	-3.1	-1.5%	8.9%	CC(=O)/C(=N\Nc1ccccc1)Sc1nnc(-c2ccccc2)n1-c1ccccc1
13.7%	-8.8	?	-7.1%	CCOC(=O)c1cc(-c2ccccc2)sc1NC(=O)CN1C(=O)NC(CC)(c2ccc(F)cc2)C1=O (configuration not stated)
/	/	?	-13.9%	CN(Cc1cc(Cl)cc(Cl)c1)CC(C(=O)c1ccccc1)c1ccccc1 (configuration not stated)
-3.6%	-0.2	-4.8%	-10.3%	COc1ccc(-c2nc(SC(CC(=O)NCCO)c3cccs3)n[nH]2)cc1 (configuration not stated)
-0.6%	/	-1.1%	0.2%	CC(C)C(C(=O)NCc1ccco1)N(Cc1ccco1)C(=O)CNS(=O)(=O)c1ccc(F)cc1 (configuration not stated)
-8.4%	-5.1	?	-27.5%	COC(=O)C(C)N1C(=O)S/C(=C/c2cc(C)n(-c3ccccn3)c2C)C1=O (configuration not stated)
/	/	0.1%	?	CCSc1nnc(NC(=O)CN2C(=O)NC3(CCCC3)C2=O)s1

# The results go on:
miR-21 FLuc	GLA inh pH 4.5	Rango-impB inh	Rango release inh	compound
1.1%	/	-0.9%	0.5%	CCOc1ccc(N=CNc2ccc(OCC)cc2)cc1
-0.4%	/	0.2%	14.7%	CCCCCc1ccc(-c2cn(Cc3ccc4ccccc4c3)nn2)cc1
-1.3%	/	-1.6%	-5.3%	COc1ccc(C)cc1Nc1n[n+](-c2ccccc2)c(-c2ccc(C(=O)O)cc2)s1
-3.1%	/	-0.2%	0.8%	O=C(COc1ccc2ccccc2c1Br)Nc1ccncc1
-4.8%	3.6	-1.9%	-2.1%	O=C(COC(=O)CNC(=O)c1sc2ccccc2c1Cl)Nc1cc(Cl)cc(Cl)c1
4.6%	2.7	-1.6%	22.5%	C[C@@H]1CCC[C@]2(O[C@H](CCO)C[C@H](O)[C@H]2O)O1
/	/	3.3%	7.1%	C[C@H]1CN([C@@H](C)CO)C(=O)Cc2cc(NC(=O)C3CC3)ccc2O[C@H]1CN(C)Cc1ccc(C(=O)O)cc1
/	/	-2.4%	9.5%	COc1ccc(COC(=O)C2CCN(S(=O)(=O)c3cccs3)CC2)cc1
7.7%	-26.7	1.2%	4.7%	O=C1NN=C(c2ccc(Br)cc2)CC1c1ccc(Cl)cc1 (configuration not stated)
0.7%	5.6	-0.9%	-1.0%	O=S(=O)(c1ccccc1)n1ccc2ccccc21
13.0%	-3.1	0.8%	1.0%	Cc1ccc(-n2c(C)cc(C(=O)COC(=O)c3ccc[nH]c3=O)c2C)cc1C
-4.0%	-1.3	-1.1%	-1.7%	CCn1ncc(/C=N/NC(=O)c2cc(Cl)ccc2OC)c1C
-18.9%	0.3	0.7%	-14.9%	COc1ccc(C2C(C#N)=C(N)OC3=C2C(=O)CC(C)(C)C3)cc1Cn1cc([N+](=O)[O-])cn1 (configuration not stated)
0.9%	-6.9	-0.9%	-14.1%	COCCNC(=O)CS(=O)Cc1nc(-c2ccc(Cl)cc2)oc1C (configuration not stated)
16.5%	-2.0	5.7%	14.6%	Cc1cccc2sc(NNC(=O)c3ccc(S(=O)(=O)N4CCc5ccccc5C4)cc3)nc12
-4.1%	-9.9	-3.7%	0.0%	CCOC(=O)COc1ccc(S(=O)(=O)NCCC2=CCCCC2)cc1
0.7%	-18.4	-2.0%	-9.4%	N#Cc1ccc(CNc2cnccn2)cc1
-3.0%	-7.8	0.0%	0.0%	N#CCCn1cc(C(=O)N2CCCCC2)c(-c2cccc([N+](=O)[O-])c2)n1
-1.8%	-8.2	0.9%	-7.1%	O=C(NCc1ccco1)C(Cc1ccccc1)NS(=O)(=O)c1cccc2nsnc12 (configuration not stated)
-0.6%	2.0	0.4%	-6.9%	Cc1sc2nc(SCC(=O)Nc3ccc(S(=O)(=O)NCCCC(=O)O)cc3)[nH]c(=O)c2c1C
/	/	2.0%	0.7%	CC(=O)Nc1ccc(C=NNc2ccc(S(=O)(=O)Nc3ccccc3C(=O)O)cc2[N+](=O)[O-])cc1
-17.6%	/	0.5%	1.7%	CCOC(=O)N1CCN(CC(O)COc2ccccc2[N+](=O)[O-])CC1 (configuration not stated)
-42.7%	0.8	0.3%	4.7%	Cc1nn(CC(=O)c2ccccc2)c(=O)c2nn(-c3ccccc3F)c(C)c12
-6.2%	/	2.3%	-11.3%	CCCc1cc(=O)oc2cc(OC(C)C(=O)NCC3CCC(C(=O)O)CC3)c(Cl)cc12 (configuration not stated)
-1.4%	-0.9	-0.8%	27.8%	Cc1cc(NC(=O)CCCN2C(=O)/C(=C\c3cccs3)SC2=S)no1

# Ordered by value in miR-21 FLuc (lowest first): 3 of the compounds above.
miR-21 FLuc	GLA inh pH 4.5	Rango-impB inh	Rango release inh	compound
-1.8%	-8.2	0.9%	-7.1%	O=C(NCc1ccco1)C(Cc1ccccc1)NS(=O)(=O)c1cccc2nsnc12 (configuration not stated)
-0.6%	2.0	0.4%	-6.9%	Cc1sc2nc(SCC(=O)Nc3ccc(S(=O)(=O)NCCCC(=O)O)cc3)[nH]c(=O)c2c1C
0.7%	-18.4	-2.0%	-9.4%	N#Cc1ccc(CNc2cnccn2)cc1

# Only part of the results is shown; count on the stated rates, not on these rows.
